gsp agonist: agonists of gsp mutant (McCune-Albright syndrome); gsp mutant cells, cAMP HTRF, 30 min; control for the full effect not named in the record; Potency, µM (doses to about 76.9 µM), for inactives: at the top dose activation (cAMP increase), usual class: activators; hit rate 0.13% among 340,000; active = well fitted activation curve with a large enough effect; inconclusive = small, poorly fitted or top-dose-only effect, or another doubt; inactive = no such curve, though single readings can be large or run the other way; cell line not stated here;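 further: phosphodiesterase inhibitor Ro 20-1724 added with compounds to block cAMP breakdown; potency means the concentration at half of the fitted maximal effect; nearly all actives have a fitted effect of over 60% in size; about a fifth of the inactives were tested at one dose only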
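Cells in DMEM/10% FBS with G418 were pretreated with compounds in DMSO plus […] (300 uM stock) for 30 min at 37C. cAMP was measured by HTRF (cAMP-d2 plus anti-cAMP antibody-K) after 30 min at room temperature.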
gsp antag: gsp mutant antagonism; AID 624288; gsp-mutant cells, cAMP HTRF, 30 min; control for the full effect not named in the record; Potency, µM (doses to about 76.9 µM), for the others: at the highest dose activity change, negative = inhibition, most hits filed as inhibitors; hit rate 0.4% among 340,000; active = falling curve of any shape with a large fitted effect; inconclusive = falling curve, mostly with a smaller effect; inactive = flat or rising curve; cell line not stated here;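 further: intracellular cAMP measured with PDE inhibitor Ro 20-1724 present during compound exposure; potency means the concentration at half of the fitted maximal effect; on the % scale 0 is the no-effect control and ±100 the full control effect; nearly all actives have a fitted effect of over 65% in size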
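Measurement of cellular cAMP by homogeneous time-resolved fluorescence following a 30 min compound exposure at 37C. The PDE inhibitor […] was present throughout; the assay buffer was DPBS with 0.05% BSA and 0.005% Tween 20.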
ClpP mod: qHTS Assay for Activators of ClpP; ATP-dependent Clp protease proteolytic subunit (Bacillus subtilis (strain 168)), P80244; purified B. subtilis ClpP, FRET peptide cleavage, 20 min; Potency, µM (doses to about 57.5 µM), without a hit: at the top dose activity change, negative = active; hit rate 1.9% among 340,000; active = well fitted falling curve with a large enough effect; inconclusive = small, poorly fitted or top-dose-only effect; inactive = no such curve, though single readings can be large or run the other way; further: potency means the concentration at half of the fitted maximal effect; the source files actives as falling curves though it sought activators and does not explain the sign; nearly all actives have a fitted effect of over 65% in size; many hits overshoot -100%
Target sequence (P80244 whole entry, looked up): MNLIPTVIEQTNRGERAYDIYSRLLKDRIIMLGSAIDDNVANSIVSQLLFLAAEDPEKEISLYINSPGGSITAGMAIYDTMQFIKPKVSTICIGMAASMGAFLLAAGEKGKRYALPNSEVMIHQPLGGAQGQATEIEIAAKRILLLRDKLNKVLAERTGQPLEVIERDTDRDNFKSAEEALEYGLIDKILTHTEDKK
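ClpP 10 microg/mL final, pH 8 Tris/KCl buffer with BSA, glycerol, Tween-20; compound pinned in; FRET-FV substrate; RT 20 min; Ex320/Em430; ΔFRET vs ADEP 5.8 microM, DMSO, no enzyme.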
D2 PAM: positive allosteric modulators of human D2 dopamine receptor; P14416; DiscoveRx D2 beta-arrestin cells, luminescence, 90 min; 100% = 57 uM dopamine signal; potentiation, % (test concentration not listed); hit rate 0.23% among 360,000; AID 624464; active = potentiation of 50% or more; inconclusive = 30% to 50%; inactive = 30% or less;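 further: compound concentration not given in the record; tested on top of an EC20 dose of dopamine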
Target sequence (P14416 whole entry, looked up): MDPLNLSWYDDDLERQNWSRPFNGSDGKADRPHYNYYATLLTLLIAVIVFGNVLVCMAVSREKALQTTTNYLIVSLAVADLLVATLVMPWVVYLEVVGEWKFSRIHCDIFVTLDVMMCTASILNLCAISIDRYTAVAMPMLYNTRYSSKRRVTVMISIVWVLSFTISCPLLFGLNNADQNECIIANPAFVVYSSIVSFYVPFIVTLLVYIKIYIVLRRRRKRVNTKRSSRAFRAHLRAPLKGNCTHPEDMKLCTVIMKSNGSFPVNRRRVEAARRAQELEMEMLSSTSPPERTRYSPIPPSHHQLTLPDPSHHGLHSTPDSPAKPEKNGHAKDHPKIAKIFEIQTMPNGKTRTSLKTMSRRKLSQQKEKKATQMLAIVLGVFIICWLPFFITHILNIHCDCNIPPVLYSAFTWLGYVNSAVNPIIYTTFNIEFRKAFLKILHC
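PathHunter D2 cells, attached overnight at 37 deg C, received compound in DMSO plus dopamine at EC20 (50 nM final) for 90 min at 37 deg C. Beta-arrestin recruitment was read as luminescence after 1 h with detection reagent at ambient temperature.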
TRPV1 potentiator: human TRPV1 potentiation; Q8NER1; hit rate 0.02% among 320,000; TRPV1-expressing cells, Fluo-8 calcium influx, capsaicin EC20 potentiation; host cell line not named in the record; control for the full effect not named in the record; potentiation, % at 8.33 µM; AID 540277; active means potentiation above 80%; inconclusive means 30% to 80%; inactive means below 30%; further: 0% is about no effect
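Cells expressing TRPV1 were dye-loaded with Fluo-8 and read kinetically: 10 s baseline, 3 min after compound (agonist portion), then 2 min after EC20 capsaicin (allosteric enhancer portion). Calcium-bound dye fluorescence at 480/520 nm.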
Sfp inh: inhibitors of Bacillus subtilis Sfp phosphopantetheinyl transferase. Biochemical Sfp PPTase activity, qHTS. Potency, µM, for the others: max response, negative = inhibition, usual class: inhibitors. hit rate 3.5% among 310,000; active means well fitted inhibition curve with a large enough effect; inconclusive means small, poorly fitted or top-dose-only effect, or another doubt; inactive means no such curve, though single readings can be large or run the other way;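 further: the enzyme is Sfp with the accession as filed and its product quenches rhodamine fluorescence; potency means the concentration at half of the fitted maximal effect; 0% = enzyme reaction without inhibitor and -100% = no enzyme wells; top concentration of the series not given in the record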
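Reaction rates are the 30-min fluorescence difference (ex 525, em 598 nm) in wells containing 15 nM Sfp, 5 uM rhodamine-CoA and 12.5 uM BHQ-2-YbbR at pH 7.6 with 10 mM MgCl2.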
Menin MLL FP FL: inhibitors of human menin-MLL interaction, wild-type MLL peptide. Fluorescence polarization, fluorescein-MLL peptide displacement from menin. FP activity change, % at 61.4 µM. 290,000 tested, under 10 active. AID 1766; inconclusive = falling polarisation curve, or a change in total fluorescence; inactive = total fluorescence flat and polarisation flat or rising; no compound was filed as active; the % refers to the polarisation; negative = inhibition;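 further: % of control where 0% means no effect; inhibitors lower the polarisation; unlabelled MLL peptide was the positive control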
Active calls of the source: *; u = inconclusive; x = not tested or not shown; & = joins results of further samples; [ ] = dose if it differs, or a comment.

#	canonical_smiles	ClpP mod	gsp antag	gsp agonist	Menin MLL FP FL	D2 PAM	Sfp inh	TRPV1 potentiator
1	CC(C)(C)/C=N/NC(=O)CNC(=O)c1ccc2c(c1)OCCO2	-2.7%	3%	-8%	3.3	-2	1%	11
2	O=C(Nc1ccccc1)OCc1cc(-c2ccc(Cl)cc2)on1	1.4%	-8%	u	2.1	-4	24%	11
3	CC1CCCC(C)N1C(=O)CN1C(=O)C(C)(C)Oc2ccc(C(=O)NC3CCCC3)cc21 (stereo not given)	-2.6%	-1%	-64%[inhibitor]	3.3	-5	-7%	-28
4	COc1cccc(CN2CCN(Cc3ccccc3C(F)(F)F)CC2)c1	x	9%	-18%	4.0	-24	56µM*	3
5	NC(=O)CSc1nnc(Cn2cnc3ccccc32)o1	-1.1%	8%	u	-3.3	-4	-4%	4
6	C=CCN(CC=C)C(=O)COn1nnc2ccc(S(=O)(=O)N3CCOCC3)cc21	1.0%	7%	16%[15.4 µM]	x	-4	x	1
7	Cc1ccc(/C=N/NC(=O)c2ccncc2)s1	x	-1%	u	3.8	-4	15%	-19
8	Cc1ccc(NC(=S)Nc2ccc(OC(F)F)c(Cl)c2)cc1F	-0.5%	-21%	8%[15.4 µM]	5.1	-4	-13%	-1
9	CC1=CC(C)C2C(=O)N(c3ccccc3)NC(=O)C2C1 (stereo not given)	16µM*	5%	6%[15.4 µM]	6.2	-5	18%	-2
10	CN(CC(=O)NCc1ccc2c(c1)OCO2)S(=O)(=O)c1ccc(Br)s1	0.6%	-10%	-30%	0.7	-12	1%	12
11	O=C(Nc1ccc(CN2CCCCC2)cc1)Nc1ccc(Br)cc1Cl	x	-6%	23%	-7.9	-4	79µM*	2
12	CC(OC(=O)CCc1cc(C(C)(C)C)c(O)c(C(C)(C)C)c1)C(=O)NC1CC1 (stereo not given)	x	-9%	9%[15.4 µM]	x	-2	x	-1
13	CNc1ccccc(-c2ccc3ccccc3n2)c1=O	0.7%	-11%	-25%[15.4 µM]	u	-1	56µM*	u
14	O=C(CN1CCN(c2ccc(F)cc2)CC1)NCc1ccc(F)cc1	-2.6%	9%	-28%	-3.6	-9	8%	-13
15	Cc1ccc(-c2ccc(C(=O)Nc3ccccc3)o2)c2ccccc12	4.8%	-29%	-4%	11	-10	40µM*	-6
16	COCCNC(=S)N/N=C(\C)c1cccc(OC)c1	x	-1%	5%[15.4 µM]	0.0	-10	-5%	6
17	O=C(c1ccc(N2CCOCC2)nc1)N1CCCCC1	-22%	-12%	-22%	2.2	-1	19%	-15
18	CCc1cc2c(-c3ccccc3)cc(=O)oc2cc1OC(C)C(=O)NCC1CCC(C(=O)O)CC1 (stereo not given)	-20%	u	x	3.7	10	7%	-1
19	Cc1cccc(NC(=O)Cn2nnc(C(=O)Nc3ccc(F)c(Cl)c3)c2N)c1	-4.1%&-11%	-3%	-2%	2.0	-4	12%	1
20	O=C(CCc1ccccc1)Nc1c(F)cccc1F	-1.5%	10%	-1%	x	4	x	x
21	O=C(CN1C(=O)c2ccccc2C1=O)NC1CCC(O)CC1 (stereo not given)	-0.5%	17%	-53%[inhibitor]	x	-8	x	1
22	CC(=O)Nc1ccc(NC(=O)C(C)OC(=O)CNC(=O)c2cccs2)cc1 (stereo not given)	-4.3%	-5%	-63%[inhibitor]	x	12	x	8
23	S=C(NCCc1ccccc1)NCCc1ccccc1	-2.2%	4%	-33%[inhibitor]	9.7	-18	11%	-11
24	O=C(c1ccc2ccccc2n1)N1CCN(c2ccccc2Cl)CC1	x	1%	13%	-1.5	-5	-10%	-16
25	COc1ccc(N(CC(=O)Nc2cc(OC)c(OC)cc2C(=O)O)S(=O)(=O)c2c(C)noc2C)cc1	-4.8%	-2%	6%	x	1	-6%	8
26	COc1cccc(Nc2nnc(SCC(=O)N(CC(C)C)CC(C)C)s2)c1	-0.9%	-23%	-20%	4.2	-3	14%	-10
27	C=CCN1C(=O)S/C(=C/c2ccc(Sc3nc4ccccc4[nH]3)o2)C1=O	1.0%	-29%	-32%	u	-23	0%	-21
28	Cc1ccc(C2(C)NC(=O)N(CC(=O)Nc3cc(S(=O)(=O)N4CCCCC4)ccc3OC(C)C)C2=O)cc1 (stereo not given)	0.9%	-4%	11%	x	-3	x	10
29	COC(=O)CNC(=O)CSc1nnc(-c2ccc(OC)cc2)n1CC(C)C	0.1%	-1%	-1%	0.7	-14	8%	26
30	CCS(=O)(=O)c1nn2c(N)c(/C=C3/C=CC(=O)C(OC)=C3)c(=O)nc2s1	-0.6%	-13%	-6%	u	6	14%	10
31	CN(C)C(=O)c1ccc(NC(=O)CSc2nnc(-c3ccc4c(c3)OCO4)o2)cc1	-4.7%	7%	-50%[inhibitor]	x	23	x	3
32	Cc1ccc(S(=O)(=O)Nc2cccc(C(=O)NCc3ccccn3)c2)cc1F	-7.8%	-5%	-9%	x	-5	x	9
33	CCCCN(C(=O)CCCc1nc2ccccc2c(=O)[nH]1)c1c(N)n(CC(C)C)c(=O)[nH]c1=O	2.4%	13%	6%	x	-1	x	-5
34	CC(=O)N1CCN2C(=O)C1CCCC(=O)c1cc(C(C)C)ccc12 (stereo not given)	-7.2%	8%	-8%	-2.4	-10	11%	-43
35	O=C(Nc1cccc(-c2ccc(N3CCOCC3)nn2)c1)c1ccc(Cl)cc1	-0.9%	-9%	4%	x	20	x	-9
36	Cc1ccccc1C(C(=O)NC1CCCC1)N(C(=O)CNC(=O)c1ccco1)c1cccnc1 (stereo not given)	x	x	x	-0.7	x	21%	12
37	CC1=CN2CC(O)CN=C2C=C1 (stereo not given)	-26%	10%	-71%[inhibitor]	1.4	-5	-4%	6
38	O=C(NNC(=O)c1ccc[nH]1)c1cc(Cl)cc(Cl)c1	-2.3%	12%	-8%	x	-10	0%	1
39	CCOc1cc(NC(=O)CCl)c(OCC)cc1NC(=O)CCl	x	17%	5%	-0.1	1	-1%	1
40	NS(=O)(=O)c1ccc(CCN2C(=O)/C(=C\c3ccc(Cl)cc3)SC2=S)cc1	-1.9%	6%	15%	12	17	23%	-10
41	CC(C)OP(=O)(OC(C)C)C(NC(=O)c1ccccc1Br)C(N)=O (stereo not given)	x	16%	23%	0.5	-1	u	-8
42	C=CCSc1nnc(N2C(=O)C(O)=C(C(=O)c3ccco3)C2c2ccccc2F)s1 (stereo not given)	-7.3%	-22%	u	u	-50	18µM*	11
43	CC(C)(C)NC(=O)NC(=O)COC(=O)Cc1coc2ccc3ccccc3c12	-1.0%	6%	-15%[15.4 µM]	2.9	-2	5%	18
44	Cc1ccc(C)c(Oc2cc(NC(=O)CCCn3nc(C)c([N+](=O)[O-])c3C)cc([N+](=O)[O-])c2)c1	-0.7%	u	-11%	2.0	10	13%	-8
45	CCN(CC)CCN(Cc1cc2cc3c(cc2[nH]c1=O)OCO3)C(=S)NCC1CCCO1 (stereo not given)	x	2%	8%[15.4 µM]	-3.7	-11	-6%	2
46	Nc1nc(Sc2ncccc2[N+](=O)[O-])n[nH]1	2.0%	9%	8%	1.6	1	3%	6
47	CCC1CCC(C(=O)NC(CCSC)C(=O)NCCN(CC(C)C)CC(C)C)CC1 (stereo not given)	x	7%	15%	-0.1	-3	15%	-23
48	COc1ccc(CCNC(=O)COC(=O)c2ccccc2NCCO)cc1OC	x	-6%	-13%[15.4 µM]	x	-3	x	12
49	Cc1c(Cl)cccc1NC(=O)N1CCCC1	x	9%	11%[15.4 µM]	0.1	0	3%	6
50	Cc1[nH]n(-c2ccccc2)c(=O)c1C(=O)c1ccc(Cl)cc1	x	-21%	16%[15.4 µM]	2.0	-2	6%	12

Next section
#	canonical_smiles	ClpP mod	gsp antag	gsp agonist	Menin MLL FP FL	D2 PAM	Sfp inh	TRPV1 potentiator
51	COc1cc(NC(=O)COC(=O)c2ccccc2SCC(=O)N2CCCC2)cc(OC)c1	-3.0%	-23%	-43%[inhibitor]	x	-26	x	-1
52	Cc1ccc2c(c1)C(O)(C1COC(C)(C)CC1=O)C(=O)N2C (stereo not given)	x	14%	24%	-6.9	0	16%	1
53	COc1cc2ncnc(NCc3ccccc3C)c2cc1OC	-26%	-8%	21%	-5.8	-14	11%	6
54	CCC(=O)c1ccc(OC(=O)N2CCOCC2)cc1	0.6%	9%	-2%	0.4	-1	14%	5
55	Cc1cccc(C)c1OCC(=O)N(Cc1ccco1)C1CCS(=O)(=O)C1 (stereo not given)	-6.2%	4%	-126%[inhibitor]	-2.5	-5	18%	-13
56	O=C(c1sc2cc(Cl)ccc2c1Cl)N1CCN(CCc2ccccn2)CC1	1.1%	-4%	-6%	0.1	-23	-13%	-9
57	COc1ccc(CNC(=O)c2ccc(=O)oc2)cc1OC	2.4%	9%	-1%	-2.4	0	8%	2
58	O=C1CC(c2ccc(F)c(Br)c2)C2=C(CCCC2=O)N1 (stereo not given)	0.8%	5%	-59%[inhibitor]	1.6	0	3%	-16
59	NNC(=O)c1sccc1OCc1ccc(F)cc1	x	-16%	10%[15.4 µM]	-1.0	-8	6%	-8
60	COC(=O)/C=C/c1sc2nc(C)cc(C)c2c1N=CN(C)C	x	-9%	2%[15.4 µM]	-3.3	-9	10%	4
61	Cc1ccccc1S(=O)(=O)N1CC(C(=O)O)=CC[C@H]1c1ccc(Cl)cc1	-4.5%	-14%	-19%	x	-5	x	u
62	CCN1CCN(S(=O)(=O)c2ccc(Cl)c(C(=O)Nc3cc(Cl)ccc3N3CCOCC3)c2)CC1	-0.4%	1%	10%	x	-13	11%	-12
